# RGS16-Gao: regulators of human RGS16-Galphao interaction. O15492+P09471. bead-based flow cytometry RGS16-Galphao binding, fluorescence; actives lie on both sides. binding response (% of control), % at 10 µM. hit rate 0.38% among 220,000;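 active = below 25% or above 175%, edge rows of some plates excepted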;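 also: Galphao activated by GDP with aluminum fluoride before binding; 100% = wells without compound and 0% = beads without RGS; some results beyond the cut were filed as inactive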
# Target sequence (O15492 whole entry, looked up): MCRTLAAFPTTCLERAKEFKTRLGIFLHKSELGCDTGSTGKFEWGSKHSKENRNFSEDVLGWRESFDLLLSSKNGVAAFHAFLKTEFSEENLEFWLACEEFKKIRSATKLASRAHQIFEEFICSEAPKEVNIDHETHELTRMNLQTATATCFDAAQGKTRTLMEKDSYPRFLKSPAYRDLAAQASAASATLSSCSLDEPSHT
# Target sequence (P09471 whole entry, looked up): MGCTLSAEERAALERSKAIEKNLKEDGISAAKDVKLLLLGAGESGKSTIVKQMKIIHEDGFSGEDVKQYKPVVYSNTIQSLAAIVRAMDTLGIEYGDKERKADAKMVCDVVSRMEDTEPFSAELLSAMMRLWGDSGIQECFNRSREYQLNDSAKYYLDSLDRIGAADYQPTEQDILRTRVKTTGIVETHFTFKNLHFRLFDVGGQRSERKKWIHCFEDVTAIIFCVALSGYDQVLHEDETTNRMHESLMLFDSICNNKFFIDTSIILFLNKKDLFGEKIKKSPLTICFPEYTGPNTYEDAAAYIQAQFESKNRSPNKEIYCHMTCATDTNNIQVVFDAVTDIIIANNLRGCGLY
# HSV augment: increases HSV replication in cells. HSV replication augmentation in cells, fold increase. hit rate 0.005% among 220,000. maximum fold increase;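 active = peak rise of 1.5-fold or more in the series; tested in PC3 cells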;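 also: first round at 10 µM; read as green reporter fluorescence; hits show the peak of a series up to 25 µM; 1 = signal of infected wells without compound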
# Insulin prom inh: TRM-6 insulin promoter activity inhibition | TRM-6 cells (human fetal islet line), insulin promoter-eGFP reporter, imaging; reporter expression induced with tamoxifen | inhibition, % at 2 µM | hit rate 0.9% among 130,000;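 active = inhibition above the mean plus 3 SD, with well images judged a real hit on visual review, cut at about 60% in these data, passing the limit was not always enough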
# GALR2 ag: GALR2 (human) receptor agonism; activation, %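 (tested at 5 µM)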; GALR2-expressing cells, agonist activation read-out; O43603; hit rate 0.48% among 140,000;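 active = above mean plus 3 SD of all compounds, about 5% in these data, not always enough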;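 also: 0% = vehicle buffer wells and 100% = reference agonist at full effect; tested in CHO reporter cells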
# Target sequence (O43603 whole entry, looked up): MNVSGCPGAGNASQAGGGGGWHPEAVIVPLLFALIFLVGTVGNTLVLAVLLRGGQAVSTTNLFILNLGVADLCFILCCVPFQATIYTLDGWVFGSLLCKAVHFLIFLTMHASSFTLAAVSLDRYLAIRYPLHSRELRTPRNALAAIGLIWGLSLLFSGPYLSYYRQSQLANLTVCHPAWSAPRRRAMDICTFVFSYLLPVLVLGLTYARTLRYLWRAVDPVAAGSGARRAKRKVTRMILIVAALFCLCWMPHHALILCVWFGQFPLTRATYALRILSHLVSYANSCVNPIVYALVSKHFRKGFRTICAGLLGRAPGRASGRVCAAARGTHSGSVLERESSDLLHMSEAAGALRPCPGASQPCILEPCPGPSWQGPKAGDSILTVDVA
# PKD1 inh: blocks activity of human protein kinase D1 | inhibition, %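 (about 10 µM by stock and volumes)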 | PKD1 kinase fluorescence polarization assay | hit rate 0.056% among 200,000 | Q15139;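 active = inhibition of 50% or more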;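 also: controls were vehicle for no effect and a reference inhibitor for full effect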
# Insulin prom inh cell count: further read-out of Insulin prom inh, marked with its call; normalized cell count, %; measured here: cell count, toxicity; reference of the scale not given here;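 cells exposed to compound for 48 h; stained nuclei by imaging scaled within each plate; lower means fewer cells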
# HSV augment primary fold: further read-out of HSV augment, marked with its call; fold increase; compound at 10 µM; measured here: primary screen fold increase 10 uM; tested in PC3 cells;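 GFP signal in the first replicate; 1 = infected wells without compound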
# * marks the source's active call; other numbers are inactive results; i = inactive; . = no result given; & = joins results of further samples.
no.	molecule	RGS16-Gao	HSV augment	HSV augment primary fold	Insulin prom inh	Insulin prom inh cell count	GALR2 ag	PKD1 inh
1	Oc1ccc(N2CCN(c3ncnc4sc5c(c34)CCC5)CC2)cc1	99	i	0.93	.	.	-1.8	10
2	O=C(COc1ccc(Br)cc1Cl)NC(=O)Nc1ccc2c(c1)OCCO2	102	i	1.1	.	.	.	-6
3	Cc1cc(Nc2cccc(Cl)c2)nc(NCc2ccccc2)n1	112	i	0.69	.	.	0.3	12
4	CCc1nc2ccccc2n1CC(=O)N1CCN(S(=O)(=O)c2cccc(C(F)(F)F)c2)CC1	91	i	0.8	-71	62	-1.5	5
5	CC(=O)Nc1ccc(SCC(=O)N(CCC#N)c2ccc(C)cc2)cc1	98	i	0.95	.	.	-0.1	-12
6	CCOC(=O)CSc1nc2c(sc(=S)n2-c2ccccc2)c(=O)[nH]1	104	i	1.1	14	61	-2.3	-4
7	Cc1ccc(C)c(-n2c(SCC(=O)Nc3nnc(C)s3)nnc2-c2ccoc2C)c1	100	i	0.9	.	.	-1.4	-8
8	O=C(CCc1ccccc1)N1CCN(c2ccc(Cl)cc2)CC1	105	i	0.83	38	74	-1.0	-1
9	O=C(COC(=O)c1ccccc1NS(=O)(=O)c1cccs1)NC1CCCCC1	106	i	1	20	150	-0.8	-1
10	O=C(CCNS(=O)(=O)c1ccc(Br)cc1)NCc1ccc2c(c1)OCO2	62	i	1.1	.	.	-2.4	-6
11	CCCCCC(=O)NC(NC(=S)N1CCOCC1)C(Cl)(Cl)Cl (stereo unspecified)	107	i	1.1	-39	132	-2.8	-1
12	CCN(CC)C(=S)SCC(=O)Nc1ncc2c(n1)CCCC2=O	97	i	0.94	.	.	.	.
13	O=C(NC(=S)Nc1cccc(Cl)c1N1CCCCC1)c1ccc2c(c1)OCCO2	106	i	0.62	19	120	0.3	-7
14	O=C(CSc1ccccc1C(=O)NCCCN1CCCC1=O)NCc1ccco1	94	i	1.1	17	174	-0.7	6
15	COc1ccc(C(=O)NNC(=O)C(=O)NCc2ccccc2)cc1	105	i	0.99	.	.	.	-2
16	Cc1ccc(C(=O)CSc2nnc(-c3ccco3)o2)o1	49	i	1.1	-13	57	1.3	1
17	CNCc1cc(Cl)cc(OC)c1OC(C)C	92	i	0.93	.	.	.	-3
18	O=C(Cn1cnc2c(nnn2-c2cccc(Cl)c2)c1=O)NCc1ccccc1	97	.	.	.	.	.	-2
19	Cc1cccc(NC(=O)c2c([N+](=O)[O-])c(C(C)(C)C)nn2C)c1	108	i	0.92	21	102	0.0	-15
20	CN(C)CC(C)(C)CNC(=S)Nc1ccc(S(=O)(=O)N2CCOCC2)cc1	99	i	1	29	139	-0.6	0
21	O=C(CCNC(=O)Cn1cnc2ccccc2c1=O)NCC1COc2ccccc2O1 (stereo unspecified)	104	i	1	.	.	-1.8	-5
22	COc1ccc(C(=O)O)cc1S(=O)(=O)Nc1cccc(C)c1	39	i	0.97	-32	100	-1.2	2
23	COc1cc(C)c(/C=C(\C#N)C(=O)Nc2cccc(C)c2)cc1C(C)C	107	i	0.73	.	.	0.6	1
24	Cc1cc(=O)c(C(=O)O)cn1-c1ccc(C(C)C)cc1	136	.	.	-23	62	.	-15
25	Cc1cc(O)c(-c2cc(C(=O)NCc3ccc4c(c3)OCO4)[nH]n2)cc1C	96	i	0.9	.	.	-0.2	-7
26	CC1Cn2c(nnc2-c2cc3ccccc3cc2O)S1 (stereo unspecified)	82	i	0.79	-28	133	-2.8	-11
27	CCc1ccccc1S(=O)(=O)Cc1ccc(C(=O)NC(C)C)o1	.	i	0.65	.	.	-2.4	4
28	Cc1ccc(N2CCN(c3ccc(C)cc3)C2c2ccncc2)cc1	102	i	1.1	.	.	-1.7	-4
29	COc1ccc(/C([O-])=C(/C(=S)Nc2ccc(C)c(C)c2)n2c[n+](C)c3ccccc32)cc1OC	104	i	1.1	-44	60	.	3
30	CCOC(=O)c1c(NC(=O)CSc2n[nH]c(-c3ccco3)n2)sc(C)c1C	104	i	1	63	141	-1.8	3
31	COc1cccc(COCCN2CCN(S(=O)(=O)c3ccc(C)cc3)CCC2=O)c1	103	i	0.89	-59	126	-1.5	-4
32	COc1cc(OC)nc(NC(=O)CN2CCN(c3ccc(F)cc3)CC2)n1	97	i	1.2	.	.	-0.8	-12
33	Cc1ccc(NC(=O)NCCCN2CCOCC2)cc1	101	i	0.95	51	79	-1.8	-6
34	Cc1ccc(C(=O)CSc2nccn2-c2ccccc2)cc1	97	i	1.1	16	63	-2.1	1
35	O=C(N1CCOCC1)N(Cc1ccccc1)c1ccccn1	98	i	0.92	.	.	-1.4	4
36	CCN1CC2=C(OC(N)=C(C#N)C2c2cccs2)/C(=C\c2cccs2)C1 (stereo unspecified)	106	i	1.1	16	61	-3.2	3
37	CC(C)n1c(O)c(N=NC(=O)Cn2ccc(C(F)(F)F)n2)c2ccccc21	102	i	0.88	.	.	1.0	-3
38	c1cncc(CNc2ccc3c(c2)OCO3)c1	94	i	1	0	93	-3.3	4
39	Cc1sc2ncn(CC(=O)NCCCC(=O)N3CCN(Cc4ccc5c(c4)OCO5)CC3)c(=O)c2c1C	100	i	0.92	.	.	.	0
40	COc1ccc(C)cc1N=Nc1ccc(O)c2ncccc12	93	i	0.7	.	.	.	-3
41	COc1ccc(C2C(C#N)=C(N)OC3=C2C(=O)CC(C)C3)c(OC)c1OC (stereo unspecified)	50	i	0.86	-31	150	-0.3	-2
42	COc1ccc(Cl)cc1C(=O)Nc1ccc2c(c1)OCO2	105	i	0.87	.	.	-2.0	0
43	CCOC(=O)C1(CC2CC2)CCN(Cc2cnc(-c3ccc(OC)cc3)nc2)CC1	98	i	1.1	.	.	.	-3
44	c1coc(CSCc2cn3cccnc3n2)c1	101	i	1	-9	98	-1.2	0
45	CC1(C)CC(=O)C2=C(C1)N(c1ccccc1)C(N)=C(C#N)C2c1ccsc1 (stereo unspecified)	101	i	0.88	-58	83	-0.2	1
46	Oc1[nH]c2ccc(Br)cc2c1N=NC(=S)N1CCOCC1	89	i	0.54	.	.	.	.
47	COc1ccc(-c2cc(C)nc(SCc3cccc(C(=O)O)c3)n2)cc1	104	i	1	29	111	0.5	-1
48	COc1ccc(C2C(C(=O)NCc3ccccn3)c3ccccc3C(=O)N2C)cc1OC (stereo unspecified)	99	i	0.83	0	93	-1.6	-4
49	O=C(OCCN1CCCCC1)C1(c2ccccc2)CCCC1	103	i	0.89	.	.	.	-10
50	COc1cc(C(=O)Nc2nnc(C3CC3)s2)ccc1OCc1c(C)noc1C	106	.	.	36	193	.	-3

# More records.
no.	molecule	RGS16-Gao	HSV augment	HSV augment primary fold	Insulin prom inh	Insulin prom inh cell count	GALR2 ag	PKD1 inh
51	O=C(O)c1ccc(COc2ccccc2/C=C2\NC(=O)N(Cc3ccc(F)cc3)C2=O)cc1	102	i	0.93	.	.	.	-3
52	CCC1CCCCN1S(=O)(=O)c1ccc(C(=O)Nc2nnc(-c3ccccc3Cl)o2)cc1 (stereo unspecified)	104	i	0.95	32	146	-2.9	-3
53	CC(=O)OCC(=O)[C@@]1(O)CC[C@H]2[C@@H]3CCC4=CC(=O)CC[C@]4(C)[C@H]3[C@@H](O)C[C@@]21C	113	i	0.83	0	102	0.5	-15
54	CC(=O)NC(CC(=O)OCC(=O)c1c(N)n(C)c(=O)n(C)c1=O)c1ccccc1 (stereo unspecified)	101	i	1.2	.	.	.	-1
55	Oc1ccc2ccccc2c1N=Nc1ccc(F)cc1	91&101	i	0.89&1.1	.	.	.	.
56	COC(=O)c1ccc(NC(=O)C2CC(=O)OC2c2ccccc2)cc1 (stereo unspecified)	89	i	1	.	.	.	.
57	CCOCc1[nH]c(=S)[nH]c(=O)c1Cc1ccc(OC(C)C)cc1	101	i	0.9	9	109	.	3
58	CCC(=O)N1N=C(c2ccc(C)o2)CC1c1ccc(OC)cc1 (stereo unspecified)	98	i	1	.	.	.	-7
59	CNCCOc1nc(N2CCOCC2)nc(C)c1[N+](=O)[O-]	101	i	1.1	-7	114	0.2	8
60	COc1ccc(C2CC(=O)Oc3cc(O)cc(O)c32)cc1 (stereo unspecified)	99	i	0.96	.	.	.	.
61	CC(C)CC(=O)NC(=S)Nc1ccc(S(=O)(=O)NC(C)(C)C)cc1	106	i	0.97	-15	155	-1.1	-7
62	O=C1OCCC1Sc1ncnc2sc3c(c12)CCC3 (stereo unspecified)	100	i	0.94	-8	184	-0.5	-7
63	CSc1nc(Cc2ccccc2)cc(=O)[nH]1	103	i	0.91	-38	79	.	-3
64	CCS(=O)(=O)c1ccc(OC)c(N=Nc2ccc(O)c3ncccc23)c1	98	i	0.61	.	.	.	11
65	COCCNC(=O)C(c1cccs1)N(C(=O)Cn1nnc2ccccc21)c1cccc(C(C)=O)c1 (stereo unspecified)	99	i	1	-54	79	-1.0	-13
66	O=C(CSc1nncs1)NC(=O)NCc1ccco1	78	i	0.96	-33	65	.	-3
67	COc1cc(CC(=O)Nc2ccc(S(=O)(=O)Nc3ncccn3)cc2)cc(OC)c1OC	110	i	0.68	.	.	-1.4	-5
68	CC(C)(C)n1nnnc1C(c1cccs1)N(Cc1cccnc1)Cc1ccco1 (stereo unspecified)	101	i	1.1	-29	127	1.1	4
69	Cc1ccc(Cl)cc1N1CCN(C(=O)CN2C(=O)c3cccc4cccc2c34)CC1	110	i	0.98	60	193	-1.1	0
70	NC(=O)Nc1ccc(C(=O)OCC(=O)Nc2cccc(S(=O)(=O)NC3=NCCCCC3)c2)cc1	95	i	1	.	.	.	.
71	O=C(COC(=O)CCC(=O)c1cccs1)Nc1cccc(S(=O)(=O)N2CCOCC2)c1	97	i	1	3	50	-1.4	1
72	Cc1cc(N2CCN(S(=O)(=O)c3ccc(Cl)cc3)CC2)c2ccccc2n1	142	i	0.86	-100	171	0.1	-1
73	O=C1Nc2ccccc2N=C(c2ccccc2)C1Br (stereo unspecified)	112	i	0.79	.	.	.	1
74	CCc1nc(SCC(=O)NCc2ccccc2)c2c(=O)n(C)c(=O)n(C)c2n1	102	i	0.92	.	.	-0.7	1
75	CC(=O)c1cnc2scnn2c1=O	100	i	0.88	-7	120	.	-3
76	COc1ccc(-c2c3c(nc4sc(C(=O)Nc5ccccc5)c(N)c24)CCC3)cc1	.	i	0.95	33	121	1.6	-10
77	COc1ccc(-c2[nH]ncc2[C@@H]2C[C@H]3CN(Cc4ccccc4C)C(=O)[C@]34CCCN24)cc1	97	i	0.93	-9	39	.	10
78	CC1CCc2onc(C(=O)O)c2C1 (stereo unspecified)	97	i	1	.	.	.	-1
79	CC(C)CCN1C(=O)c2ccc(C(=O)Nc3cccc(S(N)(=O)=O)c3)cc2C1=O	85	i	0.89	.	.	-0.5	-1
80	CCC1Sc2ccccc2N(CC(=O)NCCC2=CCCCC2)C1=O (stereo unspecified)	110	i	0.91	-35	58	-1.2	-2

# Overlap with the part before: two compounds, followed by the next part.
no.	molecule	RGS16-Gao	HSV augment	HSV augment primary fold	Insulin prom inh	Insulin prom inh cell count	GALR2 ag	PKD1 inh
79	CC(C)CCN1C(=O)c2ccc(C(=O)Nc3cccc(S(N)(=O)=O)c3)cc2C1=O	85	i	0.89	.	.	-0.5	-1
80	CCC1Sc2ccccc2N(CC(=O)NCCC2=CCCCC2)C1=O (stereo unspecified)	110	i	0.91	-35	58	-1.2	-2
81	Cc1n[nH]c(=O)n1-c1ccc(C(C)C)cc1	100	i	0.94	.	.	.	8
82	CCOc1ccc(-n2c([S-])c(C(=O)Nc3ccc(S(=O)(=O)N4CCOCC4)cc3)[n+]3cc(C(N)=O)ccc23)cc1	101	i	0.97	.	.	.	.
83	COc1cccc(NC(=O)CCSc2nnc3scc(-c4ccccc4)n23)c1	123	i	0.97	44	105	-0.5	-5
84	O=C(CC(C(=O)N1CCc2ccccc21)n1ccnc1)NCC1CCCO1 (stereo unspecified)	105	i	1.2	31	47	-0.4	-10
85	C/C(=N\Nc1ccccc1)c1cc2ccccc2oc1=O	109	i	0.93	.	.	.	-3
86	COc1ccc(CC(=O)NCCc2ccc(S(N)(=O)=O)cc2)cc1	107	.	.	32	98	-2.9	1
87	NC(=S)N/N=C/c1ccc(-c2ccc(Cl)c(Cl)c2)o1	95	i	0.94	22	57	-1.0	0
88	COc1cc(C(=O)NCCc2cc3c(OC)ccc(OC)c3[nH]c2=O)cc(OC)c1OC	94	i	0.76	-13	117	.	-1

# Molecules shown so far that have a CF3 group:
no.	molecule	RGS16-Gao	HSV augment	HSV augment primary fold	Insulin prom inh	Insulin prom inh cell count	GALR2 ag	PKD1 inh
4	CCc1nc2ccccc2n1CC(=O)N1CCN(S(=O)(=O)c2cccc(C(F)(F)F)c2)CC1	91	i	0.8	-71	62	-1.5	5
37	CC(C)n1c(O)c(N=NC(=O)Cn2ccc(C(F)(F)F)n2)c2ccccc21	102	i	0.88	.	.	1.0	-3

# Compound activity deposited in PubChem by several laboratories.

# Compounds were not picked by outcome (roughly 1.1% active in at least one column).
